PP5 inh – PP5 phosphatase inhibitors, primary screen, biochemical, fluorescence; inhibition, % at 6.7 µM; AID 1987, 2009; 320,000 tested, 0.18% active; purified PP5c, OMFP substrate fluorescence; Serine/threonine-protein phosphatase 5 (Homo sapiens), P53041;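 active means inhibition above the campaign's mean inhibition across all tested compounds plus 3 SD, cut at about 9.5% in these data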;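 further: 0% = DMSO only and 100% = 100 µM cantharidin control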
Target sequence (P53041 whole entry, looked up): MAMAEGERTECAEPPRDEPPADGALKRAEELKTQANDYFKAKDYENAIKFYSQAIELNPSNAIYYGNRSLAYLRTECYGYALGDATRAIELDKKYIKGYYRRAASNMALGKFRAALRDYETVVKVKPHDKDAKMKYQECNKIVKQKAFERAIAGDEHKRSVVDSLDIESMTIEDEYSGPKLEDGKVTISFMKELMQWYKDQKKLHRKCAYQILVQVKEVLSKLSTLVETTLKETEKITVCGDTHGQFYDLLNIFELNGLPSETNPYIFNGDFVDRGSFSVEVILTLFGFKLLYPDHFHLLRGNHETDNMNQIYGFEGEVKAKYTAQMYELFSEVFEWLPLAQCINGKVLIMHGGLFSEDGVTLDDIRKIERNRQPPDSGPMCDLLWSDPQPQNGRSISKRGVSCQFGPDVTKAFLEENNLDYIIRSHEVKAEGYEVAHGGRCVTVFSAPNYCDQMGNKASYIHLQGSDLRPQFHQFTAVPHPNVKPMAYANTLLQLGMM
TPT1 inhibitor – Candida albicans TPT1 enzyme inhibitors, primary screen, biochemical, fluorescence polarization. tRNA 2'-phosphotransferase TPT1 (Candida albicans SC5314). recombinant caTPT1, FP RNA substrate dephosphorylation. inhibition, % at 5 µM. 300,000 tested, 0.81% active. AID 1962, 2009;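 active means inhibition above the mean of all tested compounds plus 3 SD, set per screening campaign, cut at about 24% in these data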;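 further: plate controls were DMSO alone for no effect and ferristatin control at 100 nM for full effect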
Efflux pump inh – inhibitors of Candida efflux pumps in yeast, primary screen, S. cerevisiae, Nile Red, multiplex. S. cerevisiae Candida pump triplex. AID 485275, 2010. 330,000 tested, 0.44% active. inhibition, % at 10 µM;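 active means plate passing quality check with inhibition over a set limit, or well fluorescence over plate mean plus 4 SD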;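 further: Nile Red retained in pooled yeast measured as flow cytometry median fluorescence; 0% = buffer negative control and 100% = Enniatin B positive control; higher means more Nile Red kept so more efflux inhibition; some compounds called inactive have numbers as strong as hits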
core dimer inh – inhibitors of HCV core protein dimerization, primary screen, biochemical, TR-FRET, high-throughput. TR-FRET GST/Flag-core106 dimerization, 1536-well. inhibition, % at 5 µM. 300,000 tested, 0.33% active. AID 1899, 2009;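 active means inhibition above the mean of all tested compounds plus 3 SD, set per screening campaign, cut at about 45% in these data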
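Assay system: tagged HCV core106 pair (GST and Flag); medium: KF-containing HEPES buffer, pH 7.45, DTT, CHAPS, BSA; also added: Eu donor and XL665 acceptor anti-tag antibodies; dosing: 5 µM single dose; timing: compound-protein-antibody incubation 4 h at 22.5 °C; signal: TR-FRET 671 and 617 nm emission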
PP1 inh – PP1-alpha phosphatase inhibitors, primary screen, counter-screen for PP5 inhibitor project, biochemical, fluorescence, OMFP substrate, single point; 320,000 tested, 0.9% active; purified PP1alpha; inhibition, % at 6.7 µM; Serine/threonine-protein phosphatase PP1-alpha catalytic subunit (Homo sapiens), P62136; AID 2235, 2010;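 active means inhibition above the mean inhibition of all tested compounds plus 3 SD, computed separately for each screening campaign, cut at about 15% in these data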
Target sequence (P62136 whole entry, looked up): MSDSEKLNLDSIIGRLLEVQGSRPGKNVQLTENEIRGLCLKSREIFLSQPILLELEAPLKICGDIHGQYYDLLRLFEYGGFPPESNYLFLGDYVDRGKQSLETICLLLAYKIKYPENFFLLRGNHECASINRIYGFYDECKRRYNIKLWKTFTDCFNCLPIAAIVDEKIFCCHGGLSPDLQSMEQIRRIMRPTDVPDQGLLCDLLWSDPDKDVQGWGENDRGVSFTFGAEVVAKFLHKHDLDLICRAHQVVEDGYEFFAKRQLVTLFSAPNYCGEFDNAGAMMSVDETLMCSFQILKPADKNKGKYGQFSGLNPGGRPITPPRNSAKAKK
ZTA counter – blocks Epstein-Barr virus ZTA, an EBNA-1 counter-screen; ZTA-DNA binding, fluorescence polarization; AID 2234; inhibition, % at 11 µM; 320,000 tested, 0.15% active; P03206; in the data active means inhibition above about 33%
Target sequence (P03206 whole entry, looked up): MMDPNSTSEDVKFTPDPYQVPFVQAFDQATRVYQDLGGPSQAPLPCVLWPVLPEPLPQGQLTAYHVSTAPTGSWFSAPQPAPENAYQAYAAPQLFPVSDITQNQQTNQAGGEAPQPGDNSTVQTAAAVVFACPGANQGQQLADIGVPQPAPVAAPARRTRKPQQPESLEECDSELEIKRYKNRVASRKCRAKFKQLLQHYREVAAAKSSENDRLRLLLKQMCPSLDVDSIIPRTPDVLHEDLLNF
EBNA-1 inh – EBNA-1 DNA-binding inhibitors, primary screen, biochemical, fluorescence polarization. inhibition, % at 14.8 µM. 300,000 tested, 0.34% active. AID 1950, 2009; in the data active means inhibition above about 28%
Fh CTSL1 inh – Fasciola hepatica cathepsin L1 inhibitors, primary screen, counter-screen for PFM18AAP inhibitor project, biochemical, QFRET, fluorogenic peptide substrate | recombinant F. hepatica cathepsin L1, Z-Leu-Arg-MCA fluorescence | inhibition, % at 5.96 µM | 300,000 tested, 0.49% active;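 active means inhibition above the mean of all tested compounds plus 3 SD, set per screening campaign, cut at about 17% in these data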;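 further: 0% = plate median of test compound wells and 100% = 1 µM Z-Phe-Ala-diazomethylketone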
* hit, by the source's call; x = not tested or not shown. Not all compounds are listed; count on the stated rates, not on these rows.

SMILES	PP5 inh	TPT1 inhibitor	Efflux pump inh	core dimer inh	PP1 inh	ZTA counter	EBNA-1 inh	Fh CTSL1 inh
Cn1c(OCc2cccnc2)nc2c1c(=O)n(Cc1ccc(Cl)cc1)c(=O)n2C	2.4	-3	-0.2	0	-1	-25	-5	0
CC(C)CCn1c(NCCc2ccccc2)nc2c1c(=O)n(C)c(=O)n2C	1.8	0	0.0	-8	0	-8	-6	-3
Cc1ccn2c(=O)nc(SCC(=O)NCc3ccco3)nc2c1	0.6	-2	0.0	8	-3	-34	-4	6
CC(C)(C)C(=O)/C=C1\SCC(=O)N1CC(=O)N1CCN(c2ccccc2)CC1	x	x	-0.2	x	x	x	x	x
COc1ccc(C2c3c(-c4ccccc4O)n[nH]c3C(=O)N2CCc2ccc(OC)c(OC)c2)cc1 (stereo not given)	5.5	0	0.1	25	7	-11	-4	1
C/C(=C\C(=O)c1ccccc1)Nc1cccc(O)c1	4.5	-3	0.0	3	-1	12	10	4
COc1ccc(-n2c(SCC(=O)Nc3ccc4c(c3)OCO4)nc3c(c2=O)SCC3)cc1	1.7	0	-0.1	10	5	11	-3	3
COc1ccc(C2CC(c3ccc(Cl)cc3)n3nc(N)nc3N2)cc1 (stereo not given)	1.5	1	0.6	-3	0	7	0	-4
CCCNC(=O)c1ccc(N2CCC3(CC2)CC(c2ccc(Cl)cc2)=NO3)c([N+](=O)[O-])c1	0.7	1	-0.1	12	-5	6	2	5
CCOc1cc(/C=N\NC(=O)CN2CCOCC2)ccc1OCc1ccc(F)cc1	1.9	-5	-0.1	4	-2	7	0	0
COc1cc(C(=O)NCc2cccc3ccccc23)ccc1OCc1ccccc1	2.4	0	-0.2	-5	11	20	8	1
O=C(COC(=O)C1CC(=O)N(Cc2ccco2)C1)c1ccc(OC(=O)c2ccco2)cc1 (stereo not given)	0.9	-3	0.1	21	9	-9	-2	-45
O=C(CNCc1ccccn1)N1CCc2ccccc2C1	1.1	-1	-0.1	-1	-3	-18	7	-2
CCOC(=O)N1CCN(c2nc3ccccc3nc2C(C#N)S(=O)(=O)c2ccc(C)cc2)CC1 (stereo not given)	0.4	-1	0.1	-2	1	3	14	2
CCCc1nc(SCC(=O)N2CCN(c3ccccc3)CC2)c2c(=O)n(C)c(=O)n(C)c2n1	0.4	1	-0.2	12	-1	12	-2	2
CC(=O)c1sc(Nc2cccc3ccccc23)nc1C	1.2	0	0.0	8	-3	-7	6	-2
CCc1cc(C(=O)c2ccc(OC)cc2)c(NC(=O)CN2CCN(C)CC2)s1	1.4	-2	0.3	3	3	0	-22	4
O=C(O/N=C(\c1ccccc1)c1ccncc1)c1ccccc1F	0.9	-4	-0.1	2	0	2	-7	3
CN(C)CCCNC(=S)N1CCN(c2nc(-c3ccccc3)cs2)CC1	1.4	-2	0.0	0	-1	-11	10	-4
COc1ccc(NC(=O)CSc2nc3[nH]ncc3c(=O)n2-c2ccccc2OC)cc1OC	0.8	2	0.2	-9	-1	-2	2	-2
COc1ccc2cc3cc(C(=O)NCCCN4CCc5ccccc5C4)sc3nc2c1	1.8	-1	-1.0	-4	2	-4	-3	12
Cc1ccc(-n2c(C)c3c(C)nnc(C)c3c2C)cc1N	4.3	4	-0.1	0	3	-13	12	5
CC1(C)Oc2ccc(C(=O)N3CCc4ccccc43)cc2N(CC(=O)N2CCCC2)C1=O	-2.0	-3	0.1	9	1	7	12	2
O=C(c1ccc([N+](=O)[O-])s1)N1CCN(c2cccc(Cl)c2)CC1	-2.5	-1	0.2	4	-7	-14	-8	3
Cc1ccc(S(=O)(=O)C(C#N)c2nc3ccccc3nc2OC(C)C)cc1 (stereo not given)	2.9	-1	-0.1	0	-1	-17	-4	2

Some of these compounds in order of the TPT1 inhibitor value, lowest first:
compound	PP5 inh	TPT1 inhibitor	Efflux pump inh	core dimer inh	EBNA-1 inh
O=C(O/N=C(\c1ccccc1)c1ccncc1)c1ccccc1F	0.9	-4	-0.1	2	-7
C/C(=C\C(=O)c1ccccc1)Nc1cccc(O)c1	4.5	-3	0.0	3	10
CCc1cc(C(=O)c2ccc(OC)cc2)c(NC(=O)CN2CCN(C)CC2)s1	1.4	-2	0.3	3	-22
O=C(CNCc1ccccn1)N1CCc2ccccc2C1	1.1	-1	-0.1	-1	7
COc1ccc(C2c3c(-c4ccccc4O)n[nH]c3C(=O)N2CCc2ccc(OC)c(OC)c2)cc1 (stereo not given)	5.5	0	0.1	25	-4

The listing picks up; the seven compounds before the break are reprinted first.
SMILES	PP5 inh	TPT1 inhibitor	Efflux pump inh	core dimer inh	PP1 inh	ZTA counter	EBNA-1 inh	Fh CTSL1 inh
CN(C)CCCNC(=S)N1CCN(c2nc(-c3ccccc3)cs2)CC1	1.4	-2	0.0	0	-1	-11	10	-4
COc1ccc(NC(=O)CSc2nc3[nH]ncc3c(=O)n2-c2ccccc2OC)cc1OC	0.8	2	0.2	-9	-1	-2	2	-2
COc1ccc2cc3cc(C(=O)NCCCN4CCc5ccccc5C4)sc3nc2c1	1.8	-1	-1.0	-4	2	-4	-3	12
Cc1ccc(-n2c(C)c3c(C)nnc(C)c3c2C)cc1N	4.3	4	-0.1	0	3	-13	12	5
CC1(C)Oc2ccc(C(=O)N3CCc4ccccc43)cc2N(CC(=O)N2CCCC2)C1=O	-2.0	-3	0.1	9	1	7	12	2
O=C(c1ccc([N+](=O)[O-])s1)N1CCN(c2cccc(Cl)c2)CC1	-2.5	-1	0.2	4	-7	-14	-8	3
Cc1ccc(S(=O)(=O)C(C#N)c2nc3ccccc3nc2OC(C)C)cc1 (stereo not given)	2.9	-1	-0.1	0	-1	-17	-4	2
COC(=O)C1=NN(c2cccc3ccccc23)C2C(=O)N(c3ccccc3OC)C(=O)C12 (stereo not given)	1.9	-2	0.1	-1	-2	-11	-20	19*
Cc1ccc(CN2C(=O)N/C(=C/c3ccc4c(c3)n(C)c(=O)n4C)C2=O)cc1	0.5	-2	0.2	-6	8	-35	-7	5
Cc1ccc(-n2nnc3ccccc3c2=O)cc1C	4.1	-3	0.0	10	2	5	-9	-3
Cc1ccc(/C=N/n2c(C)n[nH]c2=S)o1	-0.8	-2	0.1	-8	0	4	2	3
N#Cc1c(NC(=O)CSc2nnc(-c3ccncc3)n2CC2CCCO2)sc2c1CCCC2 (stereo not given)	2.0	115*	0.2	2	0	-14	-1	6
O=C(C1=C(O)C(=O)N(CCCN2CCOCC2)C1c1ccc(Cl)cc1)c1cc2ccccc2o1 (stereo not given)	3.5	2	0.3	2	16*	11	-13	1
COC(=O)c1[nH]c2cc(OC)ccc2c1NC(=O)CN1CCC(C(N)=O)CC1	0.8	0	0.2	-7	-2	-18	-5	-2
Cc1oc(-c2ccc(-c3ccccc3)cc2)nc1CN(C)C1CCOC1 (stereo not given)	1.7	-1	0.0	1	-4	0	-2	5
N#Cc1nc(-c2ccc(OCc3ccccc3)cc2)oc1N1CCC(C(N)=O)CC1	-2.8	-3	0.7	-15	9	-2	-8	1
Cc1ccc(OCC(=O)Nc2cccc(S(=O)(=O)NC3=NCCCCC3)c2)cc1C	0.3	1	-6.0	5	-1	1	8	0
COc1cc(N(C)C)c([N+](=O)[O-])cc1C(=O)NC(C)CNc1ccc([N+](=O)[O-])cc1Cl (stereo not given)	3.8	3	0.2	-3	-2	-6	-9	1
O=C(CN1CCN(S(=O)(=O)c2ccc(F)cc2)CC1)NCC1(N2CCOCC2)CCCCC1	1.6	x	0.1	x	-5	-16	x	x
O=C1CCCC(=O)C1=C1SCCCS1	1.6	0	6.5*	-1	-2	-9	-3	-4
N#Cc1c(N(CCO)CCO)nc(N)c2c(N)nc3c(c12)CC(=O)N3Cc1cccs1	4.1	12	0.0	9	2	2	3	1
Cc1cc(C)cc(NC(=O)CSc2nc3c(c(=O)n2C)SC(C)C3)c1 (stereo not given)	3.7	-1	0.0	7	3	3	10	-2
COc1ccc(OC)c(-n2c(SCC(=O)N3CCc4ccccc43)nc3c(c2=O)SCC3)c1	2.7	-4	-0.1	34	-2	-16	-21	-3
O=C(NC1CCCCC1)C(c1ccncc1)N(C(=O)c1csnn1)c1ccccc1 (stereo not given)	5.0	2	0.3	-4	-2	3	-12	1
O=C(c1ccc(Cl)cc1)C(CN1CCCC1)c1ccccc1 (stereo not given)	-0.9	0	0.0	5	3	16	-14	-2
O=C(COC(=O)CC1c2ccccc2CCN1S(=O)(=O)c1ccccc1)Nc1ccccc1 (stereo not given)	1.9	-2	-0.1	2	5	5	8	-10
CCn1c(SCC(=O)Nc2ccc3c(c2)OCO3)nc2c(c1=O)SC(C)C2 (stereo not given)	1.0	2	0.6	5	4	-2	-1	-3
Cc1cc(NC(=O)CSc2ccc(F)cc2)no1	-3.0	0	0.2	-3	-4	-1	-1	-1
Cc1c(/C=N/NC(=O)CNc2ccccc2)c2ccccn2c1C(=O)c1ccncc1	3.4	0	0.1	1	0	4	-14	4
COc1cccc(C2c3c(-c4ccccc4O)n[nH]c3C(=O)N2Cc2ccco2)c1 (stereo not given)	6.5	2	0.1	8	4	-7	-21	-6
O=[N+]([O-])c1cc(S(=O)(=O)N2CCOCC2)ccc1N1CCCC1	0.7	-2	-0.2	1	-2	-7	-1	-1
Cc1nc2ccccc2c2oc(C(=O)Nc3ccc4c(c3)OCCO4)cc12	2.3	6	0.3	8	-2	4	-1	0

More compounds
SMILES	PP5 inh	TPT1 inhibitor	Efflux pump inh	core dimer inh	PP1 inh	ZTA counter	EBNA-1 inh	Fh CTSL1 inh
COc1ccc(N2CCCCn3c2nc2c3c(=O)[nH]c(=O)n2C)cc1	3.2	-1	-0.3	-4	4	0	-5	6
Cc1cccc(N2CC(C(=O)OCC(=O)c3ccc(OC(=O)c4cccs4)cc3)CC2=O)c1C (stereo not given)	1.6	-5	0.5	3	7	-9	-5	-21
CCOC(=O)c1ccc(NC(=O)CSc2ccc(-c3ccccn3)nn2)cc1	3.1	-2	-0.2	-3	2	2	2	1
CCc1ccc(C2CC(c3cccc(Cl)c3)n3nc(N)nc3N2)cc1 (stereo not given)	2.0	-1	0.4	0	5	6	1	6
COc1ccc(-c2[nH]ncc2CN2CCC(N3CCSCC3)CC2)cc1F	1.8	0	-0.1	-4	-4	-5	3	-3
CCCCS(=O)(=O)N1CCCC(C(=O)Oc2ccccc2)C1 (stereo not given)	0.2	-1	-0.1	20	-5	17	8	-16
Cc1ccc(OCc2nnc(SCC(=O)Nc3ccc4c(c3)OCCO4)n2Cc2ccco2)cc1	5.8	-6	0.0	10	7	-2	1	3
Cc1nnc(NC(=O)CSc2ccc(-c3ccccn3)nn2)s1	-1.2	-1	0.0	1	-4	-15	2	-6
O=S(=O)(Nc1cccnc1)c1ccc2c(c1)OCCO2	-0.1	2	0.0	-1	-4	8	-9	-1
CC(C)(C)C1N=C(c2ccc3ccccc3c2)OC1=O (stereo not given)	2.1	x	0.0	x	-2	-7	x	x
Cn1c(=O)[nH]c(=O)c2c1nc(N1CCN(Cc3ccccc3)CC1)n2CCSc1ncccn1	2.0	-2	0.0	-2	-1	1	-6	-1
C1=C(c2ccccc2)Nc2ccccc2N=C1c1ccccc1	3.0	-2	0.4	-8	2	2	-5	-3
N=c1sc2ccccc2n1-c1ccccc1	3.7	2	0.1	6	0	3	-4	2
COc1ccc(F)cc1C(=O)C1CCCN(Cc2cccn2-c2ccccn2)C1 (stereo not given)	-0.7	-1	-0.1	3	-4	2	7	3
COc1ccc(C2/C(=C(/O)c3ccccc3)C(=O)C(=O)N2C)cc1OC (stereo not given)	0.2	0	-0.2	-10	1	-16	-2	-6
CC1CCCN(c2nc3ccccc3nc2C(C#N)S(=O)(=O)c2cccs2)C1 (stereo not given)	3.2	1	-0.4	13	9	16	9	5

High-throughput results: PubChem, several laboratories
